CHO parental Ca: counter-screen: ATP calcium response change in parental CHO cells | parental CHO-K1, ATP-induced calcium, Fluo-8 fluorescence | inhibition, % at 5.6 µM | 0.63% of 330,000 active | AID 463079;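 active = inhibition above that plate's mean sample inhibition plus 3 SD, cut at about 26% in these data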;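 also: 0% = ATP-challenged DMSO wells and 100% = DMSO wells without ATP; some compounds past the cut are filed as inactive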
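Test system: parental CHO cells; detection: calcium-sensitive Fluo-8 fluorescence; evaluation: percent inhibition of calcium signal; also added: ATP as calcium-mobilizing challenge; repeats: one well per compound; control set: ATP-challenged DMSO wells low, unchallenged DMSO wells high; compound: single nominal dose of 5.6 µM per compound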
TAAR1 antag: antagonists of human TAAR1; Q96RJ0; CHO RD-HGA16 TAAR1, Fluo-8 calcium fluorescence, antagonist; inhibition, % at 3 µM; 1.5% of 360,000 active; AID 624466;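 active = inhibition above a per-plate cutoff, the mean inhibition of test compounds on that plate plus 3 SD, cut at about 49% in these data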;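 also: 0% = DMSO plus EC80 beta-PEA response and 100% = DMSO alone without agonist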
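test system = CHO RD-HGA16 cells bearing hTAAR1 | replication = singlicate | controls = DMSO-only wells and EC80 β-PEA-stimulated wells | reagent = EC80 β-phenethylamine stimulus | read-out basis = percent inhibition of PEA-evoked calcium signal, max/basal emission ratio | schedule = seeding 17-24 h prior, 75-min 37 °C, 30-min RT dye loading | signal = kinetic Fluo-8 calcium fluorescence measurement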
OXTR potentiator: human OXTR potentiation; P30559; CHO-OTR cells, Fluo-8 calcium fluorescence, potentiator mode; 0% = oxytocin EC15, 100% = EC100; activation, % at 3 µM; 0.061% of 320,000 active; AID 2445;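 active = activation above that plate's cutoff, the mean activation of tested compounds plus 3 SD, cut at about 6.6% in these data, passing the limit was not always enough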;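 also: 100% uses oxytocin at 75 nM as the full agonist control; some results filed as inactive read as strong as hits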
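System: human OTR in CHO cells; Also added: sub-maximal oxytocin, roughly EC15; Timing: compound 6 min at room temperature before oxytocin, 100 s read; Technique: Fluo-8 intracellular calcium fluorescence, ex 470-495, em 515-575 nm; Controls: oxytocin EC15 low and EC100 high; Replication: singlicate.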
An asterisk follows results filed as active; x = not tested or not shown.

1: CN(C)C1C(=O)C(C(N)=O)=C(O)C2(O)C(=O)C3=C(O)c4c(O)cccc4C(C)(O)C3CC12 (stereo unspecified)
2: CCC1(c2ccc(N)cc2)CCC(=O)NC1=O (stereo unspecified)
3: COc1ccc(C(=O)N2CCCC2=O)cc1
4: Cc1ncc2n1-c1ccc(Cl)cc1C(c1ccccc1F)=NC2
5: CC12CCC(=O)C=C1CCC1C2CCC2(C)C(O)CCC12 (stereo unspecified)
6: C[C@]12CCC3C(CC[C@H]4C[C@@H](O)CC[C@]34C)[C@H]1C=CC2=O (stereo partly specified)
7: Clc1ccc(CSC(Cn2ccnc2)c2ccc(Cl)cc2Cl)cc1 (stereo unspecified)
8: O=c1[nH]c2ccccc2n1CCCN1CCC(n2c(=O)[nH]c3cc(Cl)ccc32)CC1
9: O=C1CN=C(c2ccccc2)c2cc([N+](=O)[O-])ccc2N1

screen / no.,1,2,3,4,5,6,7,8,9
CHO parental Ca,-14,-9,2,-10,-1,0,-2,-9,-6
TAAR1 antag,x,-14,-2,-3,-1,3,40,-2,5
OXTR potentiator,-1,-3,0,-7,-4,-5,-8,-10,2

Four entries from above, as labelled records:
3: COc1ccc(C(=O)N2CCCC2=O)cc1
  CHO parental Ca: 2
  TAAR1 antag: -2
  OXTR potentiator: 0

4: Cc1ncc2n1-c1ccc(Cl)cc1C(c1ccccc1F)=NC2
  CHO parental Ca: -10
  TAAR1 antag: -3
  OXTR potentiator: -7

5: CC12CCC(=O)C=C1CCC1C2CCC2(C)C(O)CCC12 (stereo unspecified)
  CHO parental Ca: -1
  TAAR1 antag: -1
  OXTR potentiator: -4

6: C[C@]12CCC3C(CC[C@H]4C[C@@H](O)CC[C@]34C)[C@H]1C=CC2=O (stereo partly specified)
  CHO parental Ca: 0
  TAAR1 antag: 3
  OXTR potentiator: -5

Bioassay records (PubChem BioAssay)

This is a subset, so the mix of outcomes need not match the whole.
